# Screening data (PubChem BioAssay)
# NS1 function inh – qHTS Assay for Inhibitors of Influenza NS1 Protein Function; Potency, µM (highest dose often 46.1 µM), for the others: at the top dose activity, positive = more growth; 270,000 compounds, 0.4% hits; AID 2326, 2010; S. cerevisiae slowed by influenza A NS1, growth recovery by OD600; further: actives are rising curves; nearly all actives have a fitted effect of over 50% in size
#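 Growth recovery, yeast-based: influenza A NS1 expressed in S. cerevisiae causes slow growth, and suppressors are detected by OD600. The parent strain without NS1 is used as positive control.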
# SARS PLpro yeast – qHTS of Yeast-based Assay for SARS-CoV PLP | S. cerevisiae expressing SARS-CoV PLpro, growth rescue; control for the full effect not named in the record | Potency, µM (top dose mostly 32.9 µM), without a hit: at the top dose activity, positive = growth rescue | 330,000 compounds, 0.19% hits | AID 485353, 2010; further: 0% is about no effect; nearly all actives have a fitted effect of over 55% in size; growth read by luminescence after 48 h
# StopGo reporter – High Throughput Screening for Foot and Mouth Disease Virus Antivirals; human cells with a luciferase reporter of 2A StopGo recoding; control for the full effect not named in the record; Potency, µM (series often up to 57.9 µM), for the others: at the highest dose signal change, negative = less light; 410,000 compounds, 1.2% hits; AID 1159524, 2015; active = well fitted falling curve with a large enough effect; inconclusive = small, poorly fitted or top-dose-only effect; inactive = no such curve, though single readings can be large or run the other way; tested in HEK293T cells; further: on the % scale 0 is the no-effect control and ±100 the full control effect; nearly all actives have a fitted effect of over 45% in size; luciferase light after 4 h
# MARV entry inh – qHTS for inhibitors of binding or entry into cells for Marburg Virus | Marburg virus pseudotyped entry inhibition, cell reporter; control for the full effect not named in the record; about a third of the inactives were read at about 46 µM | AID 540276, 2011 | Potency, µM (doses to about 37.8 µM), inactives show at the highest dose activity change, negative = inhibition, usual class: inhibitors | 300,000 compounds, 1.8% hits; active = well fitted inhibition curve with a large enough effect; inconclusive = small, poorly fitted or top-dose-only effect, or effect the other way; inactive = flat fitted curve, though single readings scatter; tested in HEK293 cells; about a fifth of its hits are not listed in these tables; further: on the % scale 0 is the no-effect control and ±100 the full control effect; luciferase read-out
# Cruzain inh noDet – qHTS Assay for Promiscuous and Specific Inhibitors of Cruzain (without detergent). Cruzipain (Trypanosoma cruzi), P25779. purified cruzain, Z-FR-AMC fluorescence, no detergent. Potency, µM, for inactives: max response, negative = inhibition, hits mostly inhibitors. 200,000 compounds, 2.3% hits; active means well fitted curve in the direction sought with a large enough effect; inconclusive means small, poorly fitted or top-dose-only effect, or another doubt; inactive means no such curve, though single readings can be large; an effect the other way counts as inactive or inconclusive;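 further: plate controls were enzyme without inhibitor for no effect and buffer without enzyme for full effect; nearly all actives have a fitted effect of over 40% in size; top concentration of the series not given in the record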
# Target sequence (P25779 123-467 limits assumed): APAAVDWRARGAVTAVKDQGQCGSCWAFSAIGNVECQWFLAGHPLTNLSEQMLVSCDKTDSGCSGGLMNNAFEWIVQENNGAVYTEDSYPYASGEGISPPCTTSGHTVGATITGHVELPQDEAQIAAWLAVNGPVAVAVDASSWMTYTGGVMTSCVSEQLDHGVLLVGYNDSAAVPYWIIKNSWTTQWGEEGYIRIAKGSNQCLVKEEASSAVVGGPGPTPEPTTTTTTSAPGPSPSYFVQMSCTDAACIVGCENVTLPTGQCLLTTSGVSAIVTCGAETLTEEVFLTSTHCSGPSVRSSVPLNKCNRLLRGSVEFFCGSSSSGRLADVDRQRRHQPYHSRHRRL
#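 Purified cruzain at 1.5 nM, pre-incubated 15 min with compound at room temperature in 100 mM sodium acetate pH 5.5, 5 mM DTT, 0.00005% Triton X-100. Reaction started with 2 uM Z-FR-AMC; AMC fluorescence increase over 60 s gives rate.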
# Cruzain Triton – qHTS Assay for Promiscuous and Specific Inhibitors of Cruzain (with detergent). Cruzipain (Trypanosoma cruzi), P25779. purified cruzain, Z-FR-AMC fluorescence, 0.01% Triton. Potency, µM, for inactives: max response, negative = inhibition, most hits filed as inhibitors. 200,000 compounds, 0.43% hits. AID 1478, 2009; active means well fitted curve in the direction sought with a large enough effect; inconclusive means small, poorly fitted or top-dose-only effect, or another doubt; inactive means no such curve, though single readings can be large; an effect the other way counts as inactive or inconclusive;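 further: plate controls were neutral wells for no effect and buffer without enzyme for full effect; nearly all actives have a fitted effect of over 40% in size; top concentration of the series not given in the record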
#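 15 min RT preincubation of 1.5 nM cruzain with compound, then 2 uM Z-FR-AMC added; kinetic AMC fluorescence, 60 s delta. Triton X-100 0.01%, pH 5.5.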
# LASV entry inh – qHTS for Inhibitors of binding or entry into cells for Lassa Virus | Lassa virus pseudotype entry inhibition, cell reporter; control for the full effect not named in the record | Potency, µM (highest dose often 37.9 µM), for inactives: top-dose activity change, negative = inhibition, usual class: inhibitors | 300,000 compounds, 1.2% hits; active means well fitted inhibition curve with a large enough effect; inconclusive means small, poorly fitted or top-dose-only effect, or effect the other way; inactive means flat fitted curve, though single readings scatter; tested in HEK293 cells; further: on the % scale 0 is the no-effect control and ±100 the full control effect; nearly all actives have a fitted effect of over 50% in size; luciferase read-out
# RE007 growth inh – qHTS Assay for Inhibitors of the HIV-1 protein Vpr; AID 651644, 2012; 360,000 compounds, 0.21% hits; S. pombe RE007 Vpr strain, BacTiter-Glo ATP luminescence, 24 h; control for the full effect not named in the record; Potency, µM (series often up to 92.2 µM), inactives show top-dose activity change, negative = less growth; active = well fitted falling curve with a large enough effect; inconclusive = small, poorly fitted or top-dose-only effect; inactive = no such curve, though single readings can be large or run the other way;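 further: on the % scale 0 is the no-effect control and ±100 the full control effect; nearly all actives have a fitted effect of over 50% in size; the assay follows cell death caused by Vpr and the record does not say whether a fall means rescue or toxicity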
#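 Fission yeast RE007 carrying one integrated HIV-1 vpr copy, seeded at OD 0.01 in PMG+AL medium with 23 nL pinned compound. Grown 24 h at 30 degrees; viability read by BacTiter-Glo luminescence after 5 min.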
# Numbers without * were called inactive; ? = inconclusive; nt = not tested or not shown; & = joins results of further samples; [ ] = another dose, or the depositor's remark. Unless noted, the call rests on the fitted dose curve; in most records, active means well fitted rising curve with a large enough effect; inconclusive means small, poorly fitted or top-dose-only effect; inactive means no such curve, though single readings can be large or run the other way. Potency means the concentration at half of the fitted maximal effect.
# Preview (five entries):
SMILES,NS1 function inh,SARS PLpro yeast,StopGo reporter,MARV entry inh,Cruzain inh noDet,Cruzain Triton,LASV entry inh,RE007 growth inh
CC(C)C(NC(=O)CCN1C(=O)c2ccccc2C1=O)c1ccccc1 (stereo not given),8%,1%,-3%,?,nt,nt,?,-9%
Fc1cccc2sc(Nc3nnc(-c4ccco4)o3)nc12,-68%,-33%,-12%,?,?,0.4%,?,-25%
C=CCCN(C(C(=O)OC)C(C)C)S(=O)(=O)c1ccccc1Br (stereo not given),8%,-3%,-21%,nt,nt,nt,nt,-7%
Cc1c(NS(=O)(=O)c2cccc(C(=O)N3CCCC3)c2)c(=O)n(-c2ccccc2)n1C,nt,4%,-7%,4%,nt,nt,17%,3%
Cc1cc(C)cc(-n2c(SCC(=O)Nc3cccc(S(=O)(=O)NC4=NCCCCC4)c3)nc3ccccc3c2=O)c1,12%,15%,17%,-5%&8%,-7%,-3.1%,9%,-9%

# Results (from the top)
SMILES,NS1 function inh,SARS PLpro yeast,StopGo reporter,MARV entry inh,Cruzain inh noDet,Cruzain Triton,LASV entry inh,RE007 growth inh
CC(C)C(NC(=O)CCN1C(=O)c2ccccc2C1=O)c1ccccc1 (stereo not given),8%,1%,-3%,?,nt,nt,?,-9%
Fc1cccc2sc(Nc3nnc(-c4ccco4)o3)nc12,-68%,-33%,-12%,?,?,0.4%,?,-25%
C=CCCN(C(C(=O)OC)C(C)C)S(=O)(=O)c1ccccc1Br (stereo not given),8%,-3%,-21%,nt,nt,nt,nt,-7%
Cc1c(NS(=O)(=O)c2cccc(C(=O)N3CCCC3)c2)c(=O)n(-c2ccccc2)n1C,nt,4%,-7%,4%,nt,nt,17%,3%
Cc1cc(C)cc(-n2c(SCC(=O)Nc3cccc(S(=O)(=O)NC4=NCCCCC4)c3)nc3ccccc3c2=O)c1,12%,15%,17%,-5%&8%,-7%,-3.1%,9%,-9%
Cc1ccc(C)c(N2CCN(C(=O)CCNC(=O)Cn3ccc4ccccc4c3=O)CC2)c1,?,30%,-6%,10%,?,-7.5%,-18%,-1%
COc1cccc(NC(=O)c2oc3ccc(S(=O)(=O)N4CCOCC4)cc3c2C)c1,nt,-1%,?,?,?,-0.8%,?,6%
CCCC(=O)Nc1nnc(S(=O)(=O)N(CC)c2ccccc2)s1,-3%,0%,-8%,nt,nt,nt,nt,4%
O=C(Cn1nc2ccccc2n1)N/N=C/c1cc([N+](=O)[O-])ccc1O,nt,-5%,-13%,10µM*,nt,nt,?,-8%
Cc1ccc(C(=O)N/C(=C\c2cn(-c3ccccc3)nc2-c2ccccc2)C(=O)N2CCOCC2)cc1,25%,-1%,nt,9%,?,-5.3%,-2%,7%
CCN(C(=O)c1ccc2c(=O)n3c(nc2c1)CCCCC3)c1ccc(F)cc1,1%,0%,-17%,17%[46.1 µM],nt,nt,-21%[46.1 µM],8%
CCC(C)NC(=O)C1CCN(S(=O)(=O)c2cccnc2)CC1 (stereo not given),2%,2%,-19%,-5%,1%,2.7%,16%,9%

# Single records, from the list above. Screens in order: NS1 function inh	SARS PLpro yeast	StopGo reporter	MARV entry inh	Cruzain inh noDet	Cruzain Triton	LASV entry inh	RE007 growth inh
# CCN(C(=O)c1ccc2c(=O)n3c(nc2c1)CCCCC3)c1ccc(F)cc1 is entered as 1%	0%	-17%	17%[46.1 µM]	nt	nt	-21%[46.1 µM]	8%
# O=C(Cn1nc2ccccc2n1)N/N=C/c1cc([N+](=O)[O-])ccc1O is entered as nt	-5%	-13%	10µM*	nt	nt	?	-8%

# (next part)
SMILES,NS1 function inh,SARS PLpro yeast,StopGo reporter,MARV entry inh,Cruzain inh noDet,Cruzain Triton,LASV entry inh,RE007 growth inh
CCc1nnc(SCc2ccc(C(=O)OC)o2)n1N,-2%,4%,13%,8%,3%,1.9%,3%,5%
Cc1cccc(NS(=O)(=O)c2cccc(C(=O)N3CCCCCC3)c2)c1,nt,-3%,35%[activator],-19%,nt,nt,-1%[46.1 µM],-7%
CCOC(=O)c1c(C)n(-c2ccccc2)c2ccc(OC(=O)COc3ccc(Cl)cc3)cc12,nt,nt,-25%,nt,9%,0.4%,11%[46.1 µM],nt
Cc1nc2ccc(NC(=O)c3cccc(C(F)(F)F)c3)cc2o1,-11%,-13%,14%,4%,4%,-10%,-16%,-17%
CC(C)C(=O)NC(c1ccccc1Cl)c1c(O)ccc2ccccc12 (stereo not given),1%,1%,-21%,-28%,3%,-1.7%,?,13%
COc1ccc(NS(=O)(=O)c2cccc(C(=O)NNC(=O)c3ccc(Br)o3)c2)cc1,nt,-1%,5%,-3%[46.1 µM],nt,nt,-3%,-13%
COc1ccc(-c2cc(=O)c3cc(F)ccc3[nH]2)cc1,-8%,18%,-21%,9%,-5%&-5%,-1.8%&-0.6%,-6%,16%
O=C(Nc1ccc(NC(=O)C2CCCCC2)cn1)c1ccco1,-16%,-4%,-72%,?,-4%,2.7%,?,11%
Cc1ccc(Cn2ccc(NC(=O)c3noc4c3CCCC4)n2)cc1,-8%,-2%,17%,-4%,-3%,0.1%,-9%,15%
NC(=O)c1nsc(C(=O)N(CCc2ccccc2)C(C(=O)NC2CCCC2)c2ccco2)c1N (stereo not given),3%,?,nt,-23%,2%,-7.9%,-20%,-17%
COc1cc(NC(=O)COC(=O)/C=C/c2ccc(OC)c(OC)c2)cc(OC)c1,-2%,0%,-17%,-16%,nt,nt,7%,-22%
NS(=O)(=O)c1ccc(CCNC(=O)C2CCN(S(=O)(=O)c3c(Cl)cccc3Cl)CC2)cc1,-5%,-1%,27%,22%[46.1 µM],nt,nt,-5%,9%
CCOC(=O)/C(C#N)=C/c1c[nH]c2ccccc12,-6%&-23%,-2%&-59%,7%,?,1%,-15%,?,-9%
COc1cccc(C2C(C(N)=O)=C(C)Nc3nc(-c4cccc(Cl)c4)nn32)c1 (stereo not given),9%,-4%,15%,8%,-8%,2.2%,-12%,-4%
Cc1ccc(NC(C)c2cc(Cl)ccc2O)cc1 (stereo not given),0%,-11%,-6%,?,-5%,-7.0%,-11%,-10%
COc1ccc(CNC(=O)c2c([S-])n(-c3ccc(C)cc3)c3cccc[n+]23)cc1,nt,2%,17%,2%[46.1 µM],nt,nt,nt,-8%
CC1COC(c2cccn2Cc2ccccc2Cl)=N1 (stereo not given),2%,1%,-3%,5%,-3%,-1.1%,18%,1%
COc1ccc2nc(/C=N/NC(=O)CCCCCNC(=O)OC(C)(C)C)ccc2c1,-6%,2%,19%,?,nt,nt,-16%,17%
Cn1cnnc1SCC(=O)Nc1cc(C(F)(F)F)ccc1N1CCOCC1,nt,0%,0%,-3%[46.1 µM],nt,nt,16%,-13%
CCO[C@@H]1OC(C(=O)N2CCCCCCC2)=C[C@H](c2cn(C(C)=O)c3ccccc23)[C@H]1CCCO,0%,1%,-9%,nt,nt,nt,nt,18%
O=C(NCc1cccs1)C(=O)NCC1OCCCN1S(=O)(=O)c1ccccc1 (stereo not given),15%,28%,-11%,-20%,6%,-0.8%,3%,1%
CCCCc1nc2cc(C(=O)N3CCC[C@H]3CO)ccc2o1,-10%,2%,43%[activator],nt,nt,nt,nt,1%
COCCCn1c(C2CCCCC2)nc2oc3cc(OC)ccc3c(=O)c2c1=O,8%,4%,13%,-14%,8%,-0.8%,-3%,-10%
O=C(C1=C(O)C(=O)N(CCN2CCOCC2)C1c1ccc(F)cc1)c1cc2ccccc2o1 (stereo not given),2%,18%,-7%,nt,nt,nt,nt,-10%
Cc1ccc(C)c(NC(=O)CSc2ncc3c(n2)-c2cc(Cl)ccc2N(Cc2ccccc2F)S3(=O)=O)c1,nt,nt,1%,nt,-13%,0.6%,1%[46.1 µM],nt
Cn1cc(C(=O)N2CCN(c3cccc(Cl)c3)CC2)c(=O)c2cc(S(=O)(=O)N3CCOCC3)ccc21,-5%,11%,-1%,-5%[46.1 µM],nt,nt,1%[46.1 µM],-6%
COc1ccc(OCC(=O)OC2CCN(C)CC2)cc1,2%,5%,-3%,-3%,-1%,4.9%,4%,3%
C/C(=N\NC(N)=S)c1ccccc1,-3%,7%,-19%,nt,nt,nt,nt,-4%
O=C(O)CSc1nc2c(c(C(F)(F)F)n1)CCc1ccccc1-2,nt,-1%,-9%,?,nt,nt,7%,-8%
CC1=NN(C(N)=S)C(=O)C1N=Nc1cccc(C(=O)O)c1 (stereo not given),17%,-2%,?,?,nt,nt,-3%[46.1 µM],-2%
Cc1ccc(C(C)NC(=O)c2ccco2)cc1C (stereo not given),-6%,0%,-14%,7%,-2%,1.1%,-27%[14.3 µM],10%
O=C(Nc1cccc(C(F)(F)F)c1)C1CCN(S(=O)(=O)c2ccc(N3CCCC3=O)cc2)CC1,?,-7%,?,nt,nt,nt,nt,-6%
CCOC(=O)CN(Cc1ccccc1)C(C(=O)NC1CCCCC1)c1ccccc1 (stereo not given),nt,nt,?,?,-12%,0.4%,?,nt
CCO[C@H]1OC(C(=O)N2CCN(C)CC2)=C[C@@H](C2CC2)[C@@H]1CCCO,5%,-2%,-16%,nt,nt,nt,nt,-13%
CC(=O)NCC(c1ccc2c(c1)OCO2)N1CCN(c2ccccc2)CC1 (stereo not given),nt,nt,-20%,nt,-11%,-0.6%,-2%[46.1 µM],nt
CC1(C)CC(=O)C=C(NCc2ccco2)C1,-6%,-3%,-18%,22%,-1%,-3.5%,12%,-3%
Cc1csc2c(=O)sc(NC(=O)c3ccco3)nc12,-35%,-6%,15%,nt,nt,nt,nt,-4%
